Screening results: PubChem, National Center for Advancing Translational Sciences (NCATS)
Resorufin fluor – qHTS Assay for Spectroscopic Profiling in Resorufin Spectral Region | Compound fluorescence, resorufin region 547/598 nm, buffer; active compounds read high | hit rate 0.04% among 59,000 | max dye-equivalent concentration, M; active = above 10 nM dye equivalent; inconclusive = 1 to 10 nM; inactive = 1 nM or less; a few of its hits are not listed in these tables; note: highest value over a series up to 38 µM
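Intrinsic fluorescence profiled in the resorufin window (ex 547 nm, em 598 nm) after 15 min at room temperature in pH 8.0 Tris buffer (100 mM); responses normalized against a six-point resorufin standard series as dye-equivalent concentration.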
A488 fluor – qHTS Assay for Spectroscopic Profiling in A488 Spectral Region. compound autofluorescence, A488 spectral region, dye equivalency; active compounds read high. hit rate 0.1% among 59,000. max dye equivalency, M. AID 591, 2007; active = above 10 nM dye equivalent; inconclusive = 1 to 10 nM; inactive = 1 nM or less; about half of its hits are not listed in these tables;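 note: highest value over a series up to 38 µM; compound alone in buffer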
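Autofluorescence read at ex 480/em 540 nm after 15 min RT in 100 mM Tris pH 8.0; compound signal normalized to A488 standard series on each plate, reported as dye-equivalent concentration at each test concentration.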
AID923 – qHTS Assay for Allosteric/Competitive Inhibitors of Caspase-1: Spectroscopic Profiling in AFC Spectral Region; compound fluorescence, AFC spectral region (405/520 nm); almost no hit is shown here; Potency, µM (series often up to 57.5 µM), without a hit: at the highest dose fluorescence increase, most hits filed as activators; hit rate 1.1% among 75,000; AID 923, 2007; active = well fitted activation curve with a large enough effect; inconclusive = small, poorly fitted or top-dose-only effect;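 note: potency is the fitted concentration of half-maximal effect; 0% is about no effect; scaled to a free AFC standard on each plate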
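Baseline compound fluorescence (AFC region, 405 nm ex/520 nm em) taken from the intercept of kinetic reads with 50 nM caspase-1 and 5 uM Ac-WEHD-AFC; normalized to an on-plate AFC standard curve; compounds titrated up to 57 uM.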
A647 fluor – qHTS Assay for Spectroscopic Profiling in A647 Spectral Region | 59,000 tested, under 10 active | max dye-equivalent concentration, M | Compound fluorescence, A647 channel (570/671 nm), Tris buffer; active means above 1 µM dye equivalent; inconclusive means 0.1 to 1 µM; inactive means 0.1 µM or less;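 note: values scaled relative to a standard on each plate; highest value over a series up to 38 µM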
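Spectral profiling of library compounds in pH 8.0 Tris: 15 min room-temperature incubation, single ex/em pair (570/671 nm), response normalized to Alexa 647 equivalents.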
TSHR ag – qHTS Assay for Agonists of the Thyroid Stimulating Hormone Receptor | Thyrotropin receptor (Homo sapiens), P16473 | HEK293-CNG-TSHR cells (CNG channel as cAMP sensor), membrane potential dye, cAMP | Potency, µM (highest dose often 57.1 µM), without a hit: top-dose activation, usual class: activators | hit rate 0.48% among 73,000 | AID 926, 2007; active = well fitted activation curve of enough size with the parental cells flat; inconclusive = any curve in the parental cells; inactive = parental cells flat and receptor cells flat or falling; note: potency is the fitted concentration of half-maximal effect; % of control where 0% means no effect; weak receptor curves with flat parental cells got no call and are not listed
Target sequence (P16473 whole entry, looked up): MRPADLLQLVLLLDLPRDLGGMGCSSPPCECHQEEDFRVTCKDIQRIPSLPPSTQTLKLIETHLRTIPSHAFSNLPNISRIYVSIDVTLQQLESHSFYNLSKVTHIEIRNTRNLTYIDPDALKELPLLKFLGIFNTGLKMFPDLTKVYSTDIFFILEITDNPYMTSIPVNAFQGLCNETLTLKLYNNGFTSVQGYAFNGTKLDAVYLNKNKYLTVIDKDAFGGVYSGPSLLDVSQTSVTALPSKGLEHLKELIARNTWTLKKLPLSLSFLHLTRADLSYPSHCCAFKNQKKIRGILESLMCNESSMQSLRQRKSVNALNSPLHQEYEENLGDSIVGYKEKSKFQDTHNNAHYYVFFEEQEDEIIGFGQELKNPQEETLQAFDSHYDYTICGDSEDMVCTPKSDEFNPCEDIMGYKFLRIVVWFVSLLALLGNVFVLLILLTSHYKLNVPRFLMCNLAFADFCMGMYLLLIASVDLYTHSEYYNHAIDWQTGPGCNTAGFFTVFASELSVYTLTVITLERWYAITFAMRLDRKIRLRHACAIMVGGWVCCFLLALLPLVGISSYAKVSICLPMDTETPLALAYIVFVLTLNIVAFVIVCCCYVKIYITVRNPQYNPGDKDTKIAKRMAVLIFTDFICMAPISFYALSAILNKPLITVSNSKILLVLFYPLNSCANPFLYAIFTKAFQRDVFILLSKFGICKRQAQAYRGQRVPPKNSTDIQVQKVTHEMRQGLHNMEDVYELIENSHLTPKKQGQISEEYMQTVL
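cAMP rise detected as CNG-channel membrane depolarization by fluorescent dye (emission 590 nm), 30 min after compound, following 60 min dye loading containing 100 uM RO 20-1724 at room temperature. Cells: TSHR/CNG HEK 293, with parental CNG HEK 293 as control.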
Active calls of the source: *; i = inactive; ? = inconclusive; nt = not tested or not shown; [ ] = another dose, or the depositor's remark. These rows are one share of the data, so the mix of outcomes need not match the whole.

SMILES | Resorufin fluor | A488 fluor | AID923 | A647 fluor | TSHR ag
CC(C)OC(=O)CSc1nnc(-c2ccc(C(C)(C)C)cc2)n1N | i | i | 1.5% | 1e-09 | 13%
CCc1ccc(Nc2oc(C)cc(=O)c2C(C)=O)cc1 | i | i | 2.0% | 1e-09 | 0%
Cc1cc(Nc2cccc(C(F)(F)F)c2)n2nc(C)nc2n1 | i | i | -0.9% | 4e-08 | 3%
Cn1c(CCN2CCN(c3ccc(F)cc3)CC2)nc2cc(NC(=O)c3ccco3)ccc21 | i | i | 2.6% | 1e-09 | -3%
Cc1cc(C)c2cc(CN(CC3CCCO3)S(=O)(=O)c3ccc4c(c3)OCCO4)c(=O)[nH]c2c1 (centres undefined) | i | i | 0.4% | 3.9e-09 | ?
CC(=O)C[C@H](O)[C@@H](NC(=O)OC(C)(C)C)C(C)C | nt | nt | -3.3%[11.5 µM] | nt | 11%[11.4 µM]
COc1ccccc1CNCc1cccs1 | i | i | -1.6% | 2.5e-08 | 5%
COc1ccc2[nH]c(=O)c(CN(CCO)S(=O)(=O)c3ccc4c(c3)OCCO4)cc2c1 | i | i | 0.5% | 5.4e-09 | -2%
CC1(C)Cc2c(sc(NC(=O)c3ccc(Br)o3)c2C#N)CO1 | i | i | nt | 5.9e-09 | nt
COC(=O)C/C=C\[C@@H](C)[C@@H](/C=N\O[C@@H](C)CN1CCCCc2nc(C)c(C)cc21)OC | nt | nt | -1.7%[11.5 µM] | nt | ?
COc1ccc(-c2c(C#N)c(SCc3c(C)noc3C)nc3c2C(=O)CC(C)(C)C3)cc1 | i | i | 0.3% | 2e-08 | 21%
O=C1C[C@H]2C(=O)[C@@H]1[C@@H](C(=O)O)[C@H]2C(=O)O | i | i | -2.2%[11.5 µM] | 1e-09 | -4%[11.4 µM]
c1ccc(N2CCN(c3ncnc4scc(-c5cccs5)c34)CC2)cc1 | i | i | -1.0% | 2.7e-08 | ?
CC1CCN(C(=O)CSc2ccc3nnc(-c4cccc(F)c4)n3n2)CC1 | nt | nt | 0.9% | nt | 2%
O=C(NCCCN1CCOCC1)c1cc2c(s1)CCCC2 | i | i | -1.8% | 7.8e-09 | 3%
CCCS(=O)(=O)c1nc(S(=O)(=O)c2ccc(C)cc2)c(NCCN2CCOCC2)s1 | nt | nt | -2.4% | nt | 14%[11.4 µM]
CCc1cccc(C)c1NC(=O)CN1C(=O)c2ccccc2S1(=O)=O | nt | nt | 0.1% | nt | 20%
Cc1ccc(C(C(=O)NC2CCCC2)N(C(=O)c2csnn2)C2CCCC2)o1 (centres undefined) | i | i | 0.6% | 1e-09 | 5%
CN1/C(=C/C(=O)c2nc(S(C)(=O)=O)ncc2Cl)C(C)(C)c2ccccc21 | i | i | 2.3% | 1e-08 | -4%
O=C(NCCc1csc(-c2ccccc2)n1)c1cccs1 | nt | nt | -1.0% | nt | -2%
COc1ccc2cnn(-c3ccccc3C)c(=O)c2c1OC | i | i | nt | 7.1e-08 | nt
CCCC(C(=O)NCc1ccc(OC)cc1)N(Cc1ccco1)C(=O)c1snc(C(N)=O)c1N (centres undefined) | i | i | 5.0% | 1e-09 | ?
CSc1nsc(SC)c1C(=O)N1CCN(S(=O)(=O)c2ccc(C)cc2)C1C (centres undefined) | i | i | 1.5% | 2.3e-08 | ?
CCOCCc1nnc(NC(=O)c2cccs2)s1 | i | i | 0.0% | 8e-09 | -4%
CCn1cc(C2=NC(C(C)C)CO2)c2ccccc21 (centres undefined) | nt | nt | -0.5% | nt | 9%
(further entries)
SMILES | Resorufin fluor | A488 fluor | AID923 | A647 fluor | TSHR ag
Cn1cccc1C(=O)N1CCC[C@@]2(CCN(Cc3ccccc3)C2)C1 | i | i | -2.4% | 2.2e-08 | 23%
Cn1c(=O)c2c(nc(CN3CCC(C(N)=O)CC3)n2Cc2c(Cl)cccc2Cl)n(C)c1=O | i | i | 0.6% | 3.2e-08 | -6%
CCn1cc(C(=O)O)c(=O)c2cnc(N3CCN(C(=O)Nc4cccc5ccccc45)CC3)nc21 | i | i | 0.2% | 1e-09 | -4%
COCCN(CCOC)S(=O)(=O)c1ccc(C(=O)NCCCN2CCOCC2)cc1 | i | i | -0.6% | 1.2e-08 | -1%
Cc1cccc(NC(=O)c2cc(NC(=O)c3ccco3)ccc2N2CCCCC2)c1 | i | i | 0.0% | 8e-09 | 18%
C[C@@H]1C(=O)O[C@H]2[C@@H](O)[C@@]34[C@H]5C[C@H](C(C)(C)C)[C@@]36[C@H](OC(=O)[C@@H]6O)O[C@@]4(C(=O)O5)[C@@]12O | i | i | nt | 2.8e-09 | -5%
Cc1cc(C)cc(Nc2ccc(C(=O)O)cc2N)c1 | i | i | 2.5% | 9.2e-09 | 2%[11.4 µM]
COc1ccc(-c2nnc(SCC(=O)N3CCOCC3)o2)cc1OC | nt | nt | 3.7% | nt | -5%
Fc1ccccc1CSc1nnnn1-c1ccc2c(c1)OCO2 | i | i | 1.2% | 1e-09 | ?
Cc1ccc(-c2noc(CCC(=O)NC3CCCc4ccccc43)n2)cc1 (centres undefined) | i | i | -1.6% | 7e-09 | ?
COc1ccccc1CNC(=O)CCN1C(=O)COc2ccc(C)cc21 | i | i | 0.0% | 1e-09 | ?
CC1CCCCN1Cc1nc2c(c(=O)n(C)c(=O)n2C)n1CCc1ccccc1 (centres undefined) | i | i | 0.2% | 3.8e-08 | ?
O=S(=O)(NCc1ccncc1)c1ccc(Br)s1 | i | i | -1.6% | 1.9e-08 | 4%
COC(=O)[C@@]1(Cc2ccccc2)[C@H]2c3cc(C(=O)N(C)C)n(Cc4ccc(OC)c(OC)c4)c3C[C@H]2CN1C(=O)c1ccccc1 | nt | nt | -1.8% | nt | ?
Cc1c(Cl)cccc1NC(=O)NC1CCCCC1 | i | i | 0.1% | 7.9e-09 | nt
CCOC(=O)c1cc2sccc2n1CC(=O)Nc1ccc2c(c1)OCCO2 | i | i | 0.6% | 1e-09 | 2%
COCCNC(=O)[C@H](C)/C=C/C(NC(=O)OCc1ccccc1)c1ccc(C(=O)OC)cc1 (some centres undefined) | nt | nt | 1.3% | nt | 25%
CC(=O)Nc1ccc(S(=O)(=O)NC2=NCN(CCOC(=O)c3ccccc3)CN2)cc1 | nt | nt | 3.3% | nt | -1%
O=C(CN(C(=O)CCC(=O)Nc1nccs1)c1ccc(F)c(Cl)c1)NCc1ccco1 | i | i | -0.3% | 1.9e-08 | 9%
CC(C)Sc1nnc(Cn2c(=O)sc3ccccc32)n1-c1ccccc1 | nt | nt | -0.9% | nt | 28%
O=C(NC1CC1)c1ccc(COc2ccc(F)cc2)o1 | i | i | -0.8% | 1e-09 | 0%
COc1ccccc1NC(=O)Cc1noc(CSc2nnc(C)s2)n1 | i | i | 0.7% | 2.8e-09 | 1%
N#CC1=C(N)Oc2nc(-c3ccccc3)[nH]c2C1c1cccnc1 (centres undefined) | i | i | -1.9% | 1e-09 | 17%
CCN1CCN(CC(=O)Nc2c(C(=O)OC)[nH]c3cccc(Cl)c23)CC1 | i | i | 0.4% | 4.2e-08 | 8%
Cc1ccc(C(=O)CN2CCC(NC(=O)C3CCCCC3)CC2)cc1 | i | i | -2.0% | 1e-09 | -1%
The list continues:
SMILES | Resorufin fluor | A488 fluor | AID923 | A647 fluor | TSHR ag
COc1ccc(C2CC(C(F)(F)F)n3nc(CO)c(Cl)c3N2)cc1OC (centres undefined) | i | i | -1.3% | 1e-09 | -5%
CCN(CC)CCc1nc(-c2ccccc2)no1 | i | i | 0.0%[25.7 µM] | 1e-09 | -17%[25.6 µM]
CCCn1nnc(NCc2ccc(OCc3cccs3)c(OC)c2)n1 | i | i | -0.3% | 4.6e-08 | 2%
CCC(Oc1ccccc1)C(=O)Nc1ccccc1OC (centres undefined) | nt | nt | -1.3% | nt | ?
O=C(NCCc1ccc2c(c1)OCCO2)c1cc2ccccc2o1 | i | i | 0.2% | 1e-09 | ?
COc1ccc(-n2c(/C=C(\C)O)nc(=O)c3c(C)cc(C)nc32)cc1 | i | i | -3.7% | 2.3e-09 | ?
COc1cccc(CNc2nc3ccccc3n2CCN2CCCCC2)c1OC | i | i | 0.7% | 3.5e-08 | 11%
O=C(Nc1ccc2snnc2c1)N1CCN(c2ccccc2)CC1 | nt | nt | 3.3% | nt | ?
COc1ccc(NC(=O)Nc2ccccc2C(N)=O)cc1OC | i | i | -1.2% | 1.6e-09 | -3%
CCC(CC)C(=O)Nc1cc(OC)c(OC)cc1C(=O)O | i | i | 0.3% | 1e-09 | 3%
COc1cc(NS(C)(=O)=O)c(OC)cc1NC(=O)c1cccc(F)c1 | i | i | -0.7% | 1.1e-09 | 9%
Cc1cccc(OCc2nc(-c3nonc3N)no2)c1C | i | i | -0.8% | 8.7e-09 | ?
O=C(NCCN1C(=O)C2C3C=CC(C3)C2C1=O)N1CCCCC1 (centres undefined) | nt | nt | -0.6% | nt | -1%
CN(C)S(=O)(=O)N1CCN(S(=O)(=O)N(C)C)CC1 | i | i | 0.6% | 2.9e-08 | 10%
COc1ccc(OC)c(C(O)c2coc3ccc(O)c(CN4CCOCC4)c23)c1 (centres undefined) | i | i | nt | 1e-09 | nt
Cc1cc(C(=O)OCC(=O)NCc2ccco2)c(C)n1-c1ccccc1 | i | i | -2.5% | 1.1e-08 | ?
COC(=O)[C@@]1(Cc2ccc(F)cc2)[C@@H]2[C@@H](CC(=O)[C@H]2CC(=O)C(=O)N(C)C)CN1C(=O)c1ccccc1 | nt | nt | 2.5% | nt | 8%
CC(OC(=O)c1ccccc1NCc1ccco1)C(=O)Nc1ncc(Cl)cc1Cl (centres undefined) | i | i | 6.7% | 1.8e-09 | ?
CCN(C1CCCCC1)S(=O)(=O)c1ccc(OC)c(C)c1 | i | i | -1.1% | 1e-09 | nt
Cc1cc(C)nc(NC2=NC3CCCCC3N2)n1 (centres undefined) | i | i | -0.8% | 1.3e-08 | 14%
O=C(Nc1ccccn1)C1CCN(S(=O)(=O)c2cccc3nonc23)CC1 | i | i | -1.0% | 3.2e-09 | 15%
Cc1ccc(-c2csc3nc(=O)c(C)nn23)cc1 | i | i | -2.1% | 2.9e-09 | 0%
O=C(c1ccc(F)cc1)C1CCN(C(=O)c2ccncc2)CC1 | i | i | -0.8% | 3.4e-08 | -6%
Nc1c(C(=O)NCc2ccccc2)nnn1Cc1ccc(F)cc1 | nt | nt | 0.5% | nt | -3%
Cc1cccc(N2CCN(C(=O)c3cc4ccccc4oc3=O)CC2)c1C | nt | nt | -1.2% | nt | 32%
COc1ccc(CCNC(=O)Cn2c(-c3nonc3N)nc3ccccc32)cc1OC | i | i | 0.6% | 1.7e-09 | ?
COc1cc(C2=NOC(C(=O)N3CCOCC3)C2)cc(OC)c1OC (centres undefined) | i | i | -0.5% | 2.9e-08 | nt
CC(Sc1nc(-c2ccccc2)cc(C(F)(F)F)n1)C(=O)NCCN1CCOCC1 (centres undefined) | i | i | -2.6% | 1e-09 | ?
CCOc1ccc(-c2cc(CCCC(=O)Nc3cccc(OC)c3)no2)cc1 | nt | nt | 3.2% | nt | 23%
COc1ccc(-n2[nH]c(C)cc2=O)cc1 | i | i | 1.2% | 1e-09 | -10%

Among those listed so far, three contain a CF3 group.
SMILES | Resorufin fluor | A488 fluor | AID923 | A647 fluor | TSHR ag
Cc1cc(Nc2cccc(C(F)(F)F)c2)n2nc(C)nc2n1 | i | i | -0.9% | 4e-08 | 3%
COc1ccc(C2CC(C(F)(F)F)n3nc(CO)c(Cl)c3N2)cc1OC (centres undefined) | i | i | -1.3% | 1e-09 | -5%
CC(Sc1nc(-c2ccccc2)cc(C(F)(F)F)n1)C(=O)NCCN1CCOCC1 (centres undefined) | i | i | -2.6% | 1e-09 | ?
